RAD54 inh: inhibitors of human RAD54 branch migration; Q92698; hit rate 0.14% among 360,000; inhibition, % at 10.4 µM; AID 602329; RAD54 Holliday junction branch migration, FAM/BHQ fluorescence;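 active = mean normalized replicate activity at least 40 and at least half of replicates scoring 40 or more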;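 also: 0% = median of neutral control wells and 100% = median of positive control wells; inhibitors cause a drop in the FAM fluorescence signal; in these data hits start at about 50%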
esBAF inh: SWI/SNF esBAF complex inhibition | mouse ES cells, Bmi1-luciferase knock-in reporter, 24 h; 100% = twice the neutral-well signal | hit rate 2% among 350,000 | reporter increase, % at 12.5 µM | AID 602393; in the data active = activation above about 40%;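 also: 0% = median of the plate's neutral control wells and 100% = double that signal; a rise in the Bmi1 reporter signal indicates esBAF inhibition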
ERp5 inh: blocks human ERp5 reductase activity on insulin. ERp5 insulin aggregation, absorbance 650 nm, 90 min. inhibition, % at 9.99 µM. hit rate 0.05% among 350,000. AID 651711;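 active = mean replicate inhibition above about 25%, with every replicate also reaching it, limit read from the data, passing the limit was not always enough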
Target sequence (Q15084 whole entry, looked up): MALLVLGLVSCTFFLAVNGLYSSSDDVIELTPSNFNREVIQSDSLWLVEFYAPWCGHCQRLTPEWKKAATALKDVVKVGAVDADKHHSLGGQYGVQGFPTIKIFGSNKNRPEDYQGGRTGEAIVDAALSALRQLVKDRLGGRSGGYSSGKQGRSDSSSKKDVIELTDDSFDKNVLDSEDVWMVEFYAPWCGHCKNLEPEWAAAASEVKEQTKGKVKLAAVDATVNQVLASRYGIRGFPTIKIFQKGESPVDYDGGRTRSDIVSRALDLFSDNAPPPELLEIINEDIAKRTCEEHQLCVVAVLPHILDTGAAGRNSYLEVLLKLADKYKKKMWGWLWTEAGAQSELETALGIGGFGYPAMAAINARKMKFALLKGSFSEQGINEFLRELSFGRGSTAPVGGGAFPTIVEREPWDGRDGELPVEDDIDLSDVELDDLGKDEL
PglD DTNB: PglD (C. jejuni) enzyme inhibition; purified PglD enzyme, DTNB colorimetric CoA detection; inhibition, % at 12.5 µM; AID 602405; hit rate 0.098% among 360,000; in the data active = inhibition above about 16%, passing the limit was not always enough; also: strong numbers were not always called active
E-selectin induc: induces E-selectin expression in human endothelial cells; hit rate 0.37% among 260,000; activation, % at 7.58 µM; P16581; HUVEC E-selectin immunofluorescence imaging; normalized: neutral wells 0, TNF-alpha wells 100;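 active = mean E-selectin-positive cell signal at least 10% of the positive control, reached in at least 60% of replicates, without over 20% cell loss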;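 also: in these data hits start at about 27%; measured in HUVEC primary endothelial cells; signal is the percent of cells scored E-selectin positive by PE staining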
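Test system: HUVEC | Signal: Immunofluorescence imaging | Read-out: Percent E-selectin-positive cells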
RAD52 anneal inh: inhibitors of human RAD52 DNA annealing. P43351. recombinant RAD52 DNA annealing, FRET fluorescence. inhibition, % at 18.7 µM. hit rate 0.46% among 360,000. AID 651710;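 active = every replicate showing at least 50% inhibition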
Target sequence (P43351 whole entry, looked up): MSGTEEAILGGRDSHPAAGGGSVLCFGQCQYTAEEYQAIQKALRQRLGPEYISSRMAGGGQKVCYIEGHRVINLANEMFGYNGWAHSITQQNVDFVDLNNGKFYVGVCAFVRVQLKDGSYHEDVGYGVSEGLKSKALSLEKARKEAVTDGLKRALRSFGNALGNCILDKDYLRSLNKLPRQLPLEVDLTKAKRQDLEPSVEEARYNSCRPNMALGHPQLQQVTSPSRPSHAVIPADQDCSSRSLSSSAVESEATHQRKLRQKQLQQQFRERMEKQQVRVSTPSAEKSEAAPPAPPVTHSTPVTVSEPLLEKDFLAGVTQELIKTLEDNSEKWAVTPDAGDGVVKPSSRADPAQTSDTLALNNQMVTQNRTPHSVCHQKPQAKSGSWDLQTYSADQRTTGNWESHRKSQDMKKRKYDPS
Casp6 inh: blocks human caspase-6 cleavage activity; hit rate 0.53% among 350,000; purified caspase-6, Z-VEID-R110 cleavage fluorescence; P55212; inhibition, % at 12.5 µM;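 active = mean inhibition across replicates at least about 35%, with every replicate also reaching that limit, limit read from the data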;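 also: 0% = median of neutral control wells and 100% = no fluorescence left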
Starred values were filed as active, the others as inactive; . = not tested or not shown.

SMILES | RAD54 inh | esBAF inh | ERp5 inh | PglD DTNB | E-selectin induc | RAD52 anneal inh | Casp6 inh
O=C(Cn1cnc2ccccc21)N/N=C/c1ccccn1 | 4.1 | 2.3 | . | 1.4 | . | . | .
COc1ccc(NC(=O)N(C)C[C@@H]2Oc3ccc(NS(=O)(=O)c4cn(C)cn4)cc3C(=O)N([C@@H](C)CO)C[C@@H]2C)cc1 | 4.6 | 1.8 | 6.6 | -2.4 | . | -3.7 | 0.1
COc1cccc(C(=O)N/N=C(/c2ccccc2)c2ccccn2)c1 | 4.9 | -42.4 | . | 2.6 | . | . | .
O=C(CN1C(=O)COc2ccccc21)NCc1ccccn1 | -2.1 | 12.2 | . | -1.5 | . | . | .
COc1ccc(NC(=O)N(C)C[C@H]2Oc3ccc(NS(=O)(=O)c4cn(C)cn4)cc3C(=O)N([C@@H](C)CO)C[C@H]2C)cc1 | -9.4 | -9.8 | 7.0 | 0.1 | . | 7.8 | -0.3
O=C(CNc1ccc(C(F)(F)F)cc1[N+](=O)[O-])OCC(=O)c1ccccc1 | 3.7 | -6.1 | . | -9.5 | . | . | .
CC1=C(C(=O)Nc2ccccc2)C(c2cccnc2)n2nc(-c3cccnc3)nc2N1 (stereo unspecified) | -9.0 | -10.9 | . | 2.9 | . | . | .
COc1ccc(NC(=O)CSc2nnc(-c3ccncc3)o2)c([N+](=O)[O-])c1 | 0.9 | -4.1 | -1.1 | 3.3 | 1.2 | -11.9 | 0.1
CC(C)NC(=O)Nc1cccc2c1O[C@@H](CN(C)C(=O)Nc1ccc(C(F)(F)F)cc1)[C@H](C)CN([C@H](C)CO)C2=O | 4.6 | -8.3 | 3.6 | 2.6 | -0.5 | 16.2 | -1.0
COc1cccc(-c2ccc3c(c2)[C@@H]2[C@@H](CCN2S(=O)(=O)c2cn(C)cn2)[C@@H](CO)N3)c1 | 4.3 | 20.9 | 7.8 | 7.0 | 0.4 | 0.2 | -0.6
CCNC(=O)Nc1ccc2c(c1)C(=O)N(C)[C@H]1CC[C@@H](CC(=O)N[C@H](C)c3ccccc3)O[C@@H]1CO2 | 1.4 | -2.3 | 1.8 | 2.7 | 0.1 | -10.3 | 9.9
N#CC1(c2ccc(NC(=O)c3ccccc3F)cc2)CCCC1 | -8.9 | . | . | 0.5 | . | . | .
CN(/C=C/c1c([N+](=O)[O-])c(=O)n(C)c(=O)n1C)c1ccccc1 | -11.9 | 0.7 | 0.6 | 1.4 | 4.3 | -2.4 | 6.4
C=CCN(C(=O)Nc1ccc2oc(C)nc2c1)c1ccccc1 | -3.6 | -2.6 | . | 6.9 | . | . | .
CC(C)(C)NC(=O)c1ccc2c3c(cccc13)CC2 | . | -3.9 | 3.6 | . | -0.1 | -10.9 | .
Oc1ccccc1C=NNC(=S)Nc1ccc(F)cc1 | -0.1 | -0.7 | -4.7 | 1.6 | 0.2 | -25.0 | -0.9
COc1ccc(NS(=O)(=O)c2cccc(C(=O)NN=Cc3ccc(OC)cc3OC)c2)cc1 | -3.0 | 5.0 | -12.4 | -5.8 | 0.1 | -4.8 | -0.1
COc1ccc(NC(=O)N2C[C@H]3[C@@H](c4ccccc42)[C@@H](CO)N3Cc2ccccn2)cc1 | 9.7 | 22.1 | -0.1 | -1.5 | 0.1 | -14.7 | -2.2
COc1ccc(C2/C(=C(/O)c3ccccc3)C(=O)C(=O)N2C)cc1OC (stereo unspecified) | -1.5 | 0.5 | 3.1 | -3.6 | . | -15.1 | 5.5
COC(=O)c1[nH]c2cc(OC)c(OC)cc2c1NC(=O)c1cccc(OC)c1 | 22.9 | 11.5 | . | -1.4 | . | . | .
C[C@@H]1CCCCO[C@@H](CN(C)S(=O)(=O)c2cccs2)[C@@H](C)CN([C@@H](C)CO)C(=O)c2cc(NS(C)(=O)=O)ccc2O1 | -9.7 | -1.4 | -18.7 | 0.2 | -0.2 | 17.1 | 3.0
COc1ccc(CNC(=O)C[C@H]2CC[C@@H]3[C@H](COc4ccc(NC(=O)C5CC5)cc4C(=O)N3C)O2)cc1 | -2.8 | -1.5 | -2.3 | -0.5 | 0.2 | 4.9 | 4.6
C[C@H](CO)N1C[C@H](C)[C@@H](CN(C)C(=O)NC2CCCCC2)OCCCC[C@H](C)Oc2ccc(NC(=O)C3CCCCC3)cc2C1=O | 8.7 | -0.8 | 4.3 | 1.7 | -0.1 | -11.4 | -0.9
C=C1c2c(Cl)ccc(O)c2C(O)=C2C(=O)[C@]3(O)C(O)=C(C(N)=O)C(=O)[C@@H](N(C)C)[C@@H]3[C@@H](O)C12 (stereo partly specified) | -2.2 | 14.3 | -0.2 | -2.3 | -1.7 | 0.0 | 73.9*
Cc1cc(C)n(-c2ncc3c(n2)N(CCO)CCOC3=O)n1 | -5.1 | . | -3.8 | -4.2 | 0.6 | -21.2 | -1.4
Cc1cccc(-n2c(SCC(N)=O)nnc2-c2ccco2)c1 | 0.4 | -9.5 | 1.2 | -3.2 | . | -6.1 | -0.8
COc1ccc(CSc2nncn2N)cc1Br | -14.4 | -0.9 | . | 16.4 | . | . | .
CCc1nnc(NC(=O)C2(C)COC(c3ccc(OC)cc3)OC2)s1 (stereo unspecified) | . | . | 6.6 | . | 1.3 | -9.4 | -1.9
CCc1sc(C(=O)N2CCCN(C)CC2)cc1Br | 8.2 | . | -3.1 | -0.3 | 19.6 | -21.9 | 1.1
CC1=N/C(=C\c2ccc(OC(C)C)cc2)C(=O)N1c1ccc(C(=O)O)cc1 | . | 1.7 | 5.0 | . | . | -185.4 | 1.1
Cc1cc(NC(=O)CSc2ccc(-c3cccc([N+](=O)[O-])c3)nn2)no1 | -1.1 | -9.3 | 5.6 | 7.0 | 0.7 | -13.5 | 3.5
COc1ccc(OCc2cc(C(=O)NC3CCOC(C)(C)C3)no2)c2ccccc12 (stereo unspecified) | 0.0 | 14.2 | 3.9 | 5.9 | . | -2.7 | 13.6
CN(C)C(=O)c1ccc2c3c(cccc13)CC2 | . | 1.6 | 5.0 | . | . | -6.0 | 1.0
C[C@H](CO)N1C[C@H](C)[C@H](CN(C)S(=O)(=O)c2cccs2)OCCCC[C@H](C)Oc2ccc(NS(C)(=O)=O)cc2C1=O | -6.4 | 8.8 | -18.8 | -3.1 | 0.1 | 9.4 | 0.0
O=C(NCc1ccccn1)c1cccc(S(=O)(=O)NCc2ccccc2)c1 | 4.1 | -5.1 | -0.7 | 0.0 | -0.2 | 4.4 | -111.0
O=C(NCc1ccc2c(c1)OCO2)c1cccc(N2CCCC2=O)c1 | 7.5 | -5.7 | . | -0.8 | . | . | .
O=C(Nc1ccccc1)N1CCCCN2[C@H](CO)[C@H](c3ccc(C#CC4CC4)cc3)[C@@H]2C1 | 0.3 | . | -1.0 | 9.2 | 0.6 | -25.6 | -2.2
O=C(Nc1nc(-c2ccccn2)cs1)c1ncc(Cl)c(Cl)c1Cl | -7.3 | -10.0 | . | -4.8 | . | . | .
O=C(O)COCC(=O)Nc1ccc(OCCc2ccccc2)cc1 | -6.1 | -2.0 | 2.2 | 0.0 | -0.2 | -14.0 | 0.9
Cc1nn(C)cc1S(=O)(=O)NCc1ccc2c(c1)OCO2 | 2.0 | 3.4 | 4.7 | -1.0 | -0.9 | -5.0 | -1.0

Record cards, from the list above. Order of values: RAD54 inh	esBAF inh	ERp5 inh	PglD DTNB	E-selectin induc	RAD52 anneal inh	Casp6 inh
COc1ccc(OCc2cc(C(=O)NC3CCOC(C)(C)C3)no2)c2ccccc12 (stereo unspecified) as listed: 0.0	14.2	3.9	5.9	.	-2.7	13.6
C[C@H](CO)N1C[C@H](C)[C@H](CN(C)S(=O)(=O)c2cccs2)OCCCC[C@H](C)Oc2ccc(NS(C)(=O)=O)cc2C1=O as listed: -6.4	8.8	-18.8	-3.1	0.1	9.4	0.0

Next section
SMILES | RAD54 inh | esBAF inh | ERp5 inh | PglD DTNB | E-selectin induc | RAD52 anneal inh | Casp6 inh
CCOC(=O)c1nn(-c2ccccc2)c(=O)c2c(N)scc12 | -6.7 | -5.3 | . | 2.5 | . | . | .
COc1ccc(S(=O)(=O)c2c(O)c3ccc(C(=O)Nc4cccc(F)c4)cc3[nH]c2=O)cc1 | -19.4 | -2.8 | -0.5 | 2.2 | . | -21.2 | .
Cn1nc(C(=O)Nc2ccc3c(c2)OCCO3)cc1C(=O)O | 4.1 | -38.0 | . | 3.2 | . | . | .
COc1ccc2cc(C(C)C(=O)O)ccc2c1 (stereo unspecified) | -2.9 | -3.9 | 3.8 | -3.2 | 0.0 | -21.8 | -2.3
O=C(N/N=C/c1ccncc1)c1cccc(S(=O)(=O)Nc2ccc(Cl)cc2)c1 | . | . | 5.6 | . | -0.4 | -9.4 | 1.9
COc1ccc(-c2csc(N3CCC(c4ccccc4)CC3)n2)cc1 | 1.9 | . | 1.1 | 0.6 | . | -7.0 | -2.9
O=C([C@H]1[C@H](CO)[C@H]2Cn3c(cccc3=O)[C@H]2N1CCC(F)(F)F)N1CCCCC1 | 10.9 | 3.1 | -5.2 | -1.4 | 0.2 | -29.5 | 15.8
O=C(NCC1(N2CCCCC2)CCCCC1)c1ccc(NS(=O)(=O)c2ccccc2)cc1 | -9.3 | 3.3 | 5.8 | 6.9 | -0.2 | -18.6 | -1.4
Cc1cc(NC(=O)CSc2nnc(COc3ccccc3)o2)no1 | 1.2 | -14.4 | . | -13.1 | . | . | .
CC(C)NC(=O)Nc1cccc2c1O[C@H](CN(C)Cc1ccc(Oc3ccccc3)cc1)[C@H](C)CN([C@H](C)CO)C2=O | -1.7 | -1.1 | 4.1 | 3.7 | 0.1 | 11.5 | -0.5

Reprinted from the part before: 3 entries; new compounds follow.
SMILES | RAD54 inh | esBAF inh | ERp5 inh | PglD DTNB | E-selectin induc | RAD52 anneal inh | Casp6 inh
O=C(NCC1(N2CCCCC2)CCCCC1)c1ccc(NS(=O)(=O)c2ccccc2)cc1 | -9.3 | 3.3 | 5.8 | 6.9 | -0.2 | -18.6 | -1.4
Cc1cc(NC(=O)CSc2nnc(COc3ccccc3)o2)no1 | 1.2 | -14.4 | . | -13.1 | . | . | .
CC(C)NC(=O)Nc1cccc2c1O[C@H](CN(C)Cc1ccc(Oc3ccccc3)cc1)[C@H](C)CN([C@H](C)CO)C2=O | -1.7 | -1.1 | 4.1 | 3.7 | 0.1 | 11.5 | -0.5
Oc1ccccc1-c1nc(NCC2CCCO2)c2ccccc2n1 (stereo unspecified) | . | -7.0 | . | . | . | . | .
CCOC(=O)C1CCN(C(=O)c2ccc(S(=O)(=O)Nc3ccccc3Cl)cc2)CC1 | -6.1 | -0.1 | -9.4 | -3.0 | . | -6.4 | -3.0
C[C@H](CO)N1C[C@H](C)[C@@H](CN(C)C(=O)Nc2ccc(F)cc2)OCCCC[C@H](C)Oc2ccc(NS(=O)(=O)c3ccc(Cl)cc3)cc2C1=O | 3.0 | 0.4 | 0.3 | 8.8 | -0.3 | -0.2 | 0.3
C=CCn1c(CCNC(=O)c2cccs2)nnc1SCC(=O)Nc1cccc(F)c1 | -1.1 | -7.1 | . | -2.3 | . | . | .
C[C@@H]1CN([C@H](C)CO)C(=O)c2cccc(NS(C)(=O)=O)c2O[C@@H]1CN(C)C(=O)Nc1ccc2c(c1)OCO2 | 6.0 | 9.3 | 0.0 | -1.4 | 0.4 | 0.1 | -1.8
CCOC(=O)C1CCN(C(=O)c2cccc(NS(=O)(=O)c3ccc(Br)cc3)c2)CC1 | 9.7 | 0.5 | 0.2 | 2.0 | -0.2 | -11.9 | -1.7
CC1CC(C(F)F)n2nc(C(=O)Nc3sc4c(c3C#N)CCC(C(C)(C)C)C4)nc2N1 (stereo unspecified) | 4.8 | -8.3 | . | 7.9 | . | . | .
CC1CCN(S(=O)(=O)c2cn(CC(=O)Nc3cccc(C#N)c3)cn2)CC1 | -0.8 | 3.5 | 2.2 | -2.0 | -0.4 | -23.0 | 0.5
CCOC(=O)C1=C(C)Nc2nnnn2C1c1cccnc1 (stereo unspecified) | -6.9 | . | . | 1.7 | . | . | .
O=c1c2cc(Cl)cc(Cl)c2nc2n1CCC2 | . | . | -1.0 | . | 8.3 | -0.8 | 1.6
Cc1[nH]c(=O)[nH]c(=O)c1S(=O)(=O)NCCOC12CC3CC(CC(C3)C1)C2 | -6.4 | -2.9 | . | -0.1 | . | . | .
Cc1nnc(SCC(=O)N(C)CC(=O)Nc2ccc(F)cc2)n1Cc1ccccc1 | . | . | -3.4 | . | 1.0 | -17.2 | 0.0

High-throughput results as filed in PubChem.

Only part of the results is shown. The share of hits here may be higher or lower than overall.
